Rce1 inhib – blocks yeast Ras-converting enzyme. Q03530. yeast membranes, quenched prenylated peptide cleavage fluorescence. calls only. hit rate 0.27% among 290,000. AID 2563;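 active = fall in fluorescence gain of 50% or more versus controls, with final raw signal at or below 3038400; inconclusive = same 50% fall but final raw signal above 3038400; inactive = fall in fluorescence gain under 50%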;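 note: plate controls were neutral control wells for no effect and wells lacking membranes for full effect; tested at 10 µM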
Target sequence (Q03530 whole entry, looked up): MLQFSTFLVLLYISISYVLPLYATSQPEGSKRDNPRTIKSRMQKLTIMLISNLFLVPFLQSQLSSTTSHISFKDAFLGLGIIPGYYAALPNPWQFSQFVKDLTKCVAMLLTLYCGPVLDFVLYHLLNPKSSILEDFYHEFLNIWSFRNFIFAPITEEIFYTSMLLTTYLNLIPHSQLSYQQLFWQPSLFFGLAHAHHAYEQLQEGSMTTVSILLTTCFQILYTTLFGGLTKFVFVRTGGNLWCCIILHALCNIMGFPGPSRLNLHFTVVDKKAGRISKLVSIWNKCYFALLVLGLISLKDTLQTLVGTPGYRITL
CSC inhib – cancer stem cell inhibition; inhibition, % at 7.5 µM; AID 2717; hit rate 1.1% among 300,000; cancer stem cell-like cells viability, luminescence;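 active = mean at 75% or more and at least half the replicates too; inconclusive = mean and replicates disagree; tested in HMLE shEcad cells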;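 note: 0% = median of negative and 100% = median of positive control wells; the first replicate is given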
PABP FP inh – blocks human PABP binding to poly(A) RNA; hit rate 1% among 290,000; inhibition, % at 35 µM; fluorescence polarization;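 active = 50% or more with normal probe brightness, or confirmed in later tests; inconclusive = above 50% with abnormal brightness, or retests that disagree; inactive = below 50% or failed in later tests; about a fifth of its hits are not listed in these tables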;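 note: calls also rest on retests at 20 µM and on dose response follow-up; controls were probe without protein and protein plus probe with vehicle; some compounds called inactive have numbers as strong as hits; many hits fall short of the cut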
Target sequence (P11940 whole entry, looked up): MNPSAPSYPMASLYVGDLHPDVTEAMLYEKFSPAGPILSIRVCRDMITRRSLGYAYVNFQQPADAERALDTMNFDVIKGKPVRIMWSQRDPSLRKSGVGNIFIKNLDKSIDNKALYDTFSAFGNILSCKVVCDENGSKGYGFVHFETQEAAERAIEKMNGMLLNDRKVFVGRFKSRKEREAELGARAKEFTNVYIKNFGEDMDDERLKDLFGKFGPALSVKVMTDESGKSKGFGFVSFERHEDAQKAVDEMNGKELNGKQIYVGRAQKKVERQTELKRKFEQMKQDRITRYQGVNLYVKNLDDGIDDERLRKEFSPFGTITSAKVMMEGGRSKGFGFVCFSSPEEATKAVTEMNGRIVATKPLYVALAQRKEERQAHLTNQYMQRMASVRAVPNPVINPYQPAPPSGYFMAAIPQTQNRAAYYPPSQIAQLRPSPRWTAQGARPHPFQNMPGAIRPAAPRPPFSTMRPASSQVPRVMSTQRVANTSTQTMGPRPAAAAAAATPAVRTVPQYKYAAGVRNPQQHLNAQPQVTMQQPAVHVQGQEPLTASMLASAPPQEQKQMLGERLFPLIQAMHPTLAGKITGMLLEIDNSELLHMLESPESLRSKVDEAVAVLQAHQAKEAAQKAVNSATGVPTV
MT1-MMP act inh – blocks activation of human MT1-MMP; P50281; AID 651647; hit rate 0.061% among 360,000; HT1080 RFP-PRO-GFP cells, GFP/RFP ratio fluorescence, overnight; percent of plate control window, DMSO zero; GFP/RFP ratio change, % at 20 µM;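 active = GFP/RFP ratio change of at least 30% with cell ATP level not reduced by more than half and red fluorescence within 50% of control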; note: strong numbers were not always called active
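Assay system – RFP-PRO-GFP reporter HT1080 cells · Compound dosing – single dose of 20 µM compound, 1% DMSO final · Incubation – overnight compound exposure at 37 °C · Measure – GFP/RFP fluorescence ratio · Benchmarks – DMSO wells and RFP-L50D-GFP cells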
Yeast UUG start – yeast start codon fidelity modulation | hit rate 0.13% among 350,000 | S. cerevisiae UUG-firefly luciferase reporter, luminescence/redox ratio | activity score, % at 18.7 µM;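 active = replicate mean at a twofold rise or more, about +100% in these data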;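 note: firefly luciferase made from a UUG start codon reports start codon fidelity; reporter light over untreated wells divided by growth signal over untreated wells; some hits fall short of that in this replicate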
eIF4H FP inh – inhibitors of RNA binding by human eIF4H. hit rate 0.94% among 290,000. inhibition, % at 35 µM. AID 2012. eIF4H fluorescence polarization binding assay. Q15056;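 active = 50% or more with normal probe brightness, or confirmed in later tests; inconclusive = above 50% with abnormal brightness, or retests that disagree; inactive = below 50% or failed in later tests; about a fifth of its hits are not listed in these tables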;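 note: calls also rest on retests at 20 µM and on dose response follow-up; 0% = protein and probe with vehicle and 100% = probe without protein; strong numbers were not always called active; many hits fall short of the cut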
Env fusion inh – blocks HIV Env-driven cell-cell fusion; HeLa-JRFL Env/CEM21 cell fusion, luciferase; inhibition, % at 12.3 µM; hit rate 1.1% among 360,000; AID 651610;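 active = mean replicate inhibition score of at least 50 and every replicate individually at or above 50; inconclusive = only one of the two criteria met; inactive = mean below 50 and not all replicates reaching 50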;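 note: 0% = plate neutral controls and 100% = maraviroc near 300 nM; one replicate is shown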
eIF4H FP inh retest – also measured in eIF4H FP inh; calls as there; inhibition, %; compound at 20 µM; confirmation average;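 mean of two retest wells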
PABP FP inh retest – also measured in PABP FP inh; calls as there; inhibition, %; compound at 20 µM; confirmation repeats;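 mean of two retest wells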
MT1-MMP act inh RFP – further read-out of MT1-MMP act inh, marked with its call; RFP signal change, %; measured here: RFP expression control read;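 0 = vehicle wells; hits needed this value within 50% of zero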
Starred values were filed as active, the others as inactive; i = inactive; u = inconclusive; x = no result given; + = active, no number.

SMILES	Rce1 inhib	CSC inhib	PABP FP inh	MT1-MMP act inh	MT1-MMP act inh RFP	Yeast UUG start	eIF4H FP inh	Env fusion inh	others
OCCC1CN(Cc2ccn[nH]2)CCN1Cc1ccc(F)c(F)c1 (stereo not given)	i	2	-2	-2	0	x	5	-5
CCN(CC)C(=O)Cc1cn(C)c2ccccc12	i	-3	-3	3	0	-7	0	7
CCOc1ccc(C(=O)c2cccs2)cc1	i	-10	-1	1	5	-7	-9	-98
COc1ccc(CCNC(=O)c2ccc(=O)[nH]n2)cc1OC	i	-9	-3	-4	4	-5	-7	x
Cc1ccccc1NC(=O)COC(=O)/C=C/c1cn(-c2ccccc2)nc1-c1cccnc1	i	1	-9	-2	-1	x	1	10
O=C(CNC(=O)c1ccc(Cl)cc1)NNc1c(F)c(F)cc(F)c1F	x	-6	x	0	3	-23	x	-4
CCOc1ccc(S(=O)(=O)Nc2ccccc2C(=O)N2CCOCC2)cc1	i	5	6	-3	1	-5	-8	13
COc1cc(CNn2c(C)n[nH]c2=S)cc(Br)c1OCC(=O)NC(C)(C)C	i	-4	2	5	-8	-5	-2	-13
N#Cc1ccc(NC(=O)CCc2ccc(S(=O)(=O)N3CCOCC3)cc2)cc1	i	6	8	5	-1	-17	-9	20
C=CCNC(=O)COC(=O)COc1ccc(Cl)cc1C	x	-11	-1	9	5	-11	-5	-10
Cc1ccc(CSc2nc3c(cc2C#N)CCC3)cc1	i	1	6	1	-2	x	9	x
Cc1c(CN2CCc3c([nH]c4ccccc34)C2CC(C)C)cnn1C (stereo not given)	i	-8	13	-2	3	x	1	-4
COc1ccc(N(CN2C(=O)C3CCCCC3C2=O)C(=O)c2ccco2)cc1 (stereo not given)	i	-13	-4	0	-3	-1	-14	6
Cc1ccc(C2(C)NC(=O)N(CC(=O)NNC(=O)c3ccccc3F)C2=O)cc1 (stereo not given)	x	x	x	2	8	1	x	2
Cc1ccccc1CSc1nc2[nH]ncc2c(=O)[nH]1	i	14	1	-1	-4	x	4	19
Cc1ccc(SCCCn2cncn2)cc1	i	14	20	-6	-4	-22	1	-11
CCn1c(SCC(=O)Nc2ccc3c(c2)OCCO3)nnc1-c1ccco1	i	-11	-2	3	1	-14	-6	x
C=CCSc1nnc2c(n1)OC(c1ccccn1)N(C(C)=O)c1ccccc1-2 (stereo not given)	i	-1	-7	4	0	-5	-2	x
O=C(CSc1nnc(-c2ccc(O)cc2)n1Cc1ccco1)c1cccs1	i	6	9	-4	-2	-12	3	6
COc1ccc(N2CCN(C(CNC(=O)OCc3ccccc3)c3ccco3)CC2)cc1 (stereo not given)	i	2	5	0	-9	3	-2	7
C#CCNC(=O)c1ccc2sc([C@@H]3O[C@H](CO)[C@H](O)[C@H](O)[C@H]3O)nc2c1	x	x	x	1	7	35	x	-74
COc1ccc2cc(Br)ccc2c1CC(=O)NC(C)C	i	-15	5	1	-4	x	-6	13
O=C(Cc1cccs1)NCc1cccc(CNC(=O)Cc2cccs2)c1	i	-15	u	-2	0	-13	3	-8
CCn1cc(C(=O)NC2CCCCCC2)c(=O)c2cc(S(=O)(=O)N3CCCCC3)ccc21	x	-4	x	-8	-5	-18	x	29
O=Cc1nc(-c2ccccc2Cl)n2ccccc12	i	-14	-1	-6	3	-4	-15	x
COc1ccc(N2CCN(C(c3cc4ccc(C)cc4[nH]c3=O)c3nnnn3C3CCCC3)CC2)cc1 (stereo not given)	x	-5	0	-1	-6	1	-4	-7
CC1CN(S(=O)(=O)c2cccc(C(=O)NN3CCN(C)CC3)c2)CC(C)O1 (stereo not given)	i	9	19	-4	-1	-12	2	-18
C=C(C)CNC(=S)/N=c1\scc(C)n1CC	i	0	-4	3	0	-33	1	-109
O=C(CCl)Nc1c(C(=O)Nc2ccc3c(c2)OCCO3)oc2ccccc12	i	36	-10	4	2	-48	-14	-72
COc1cc(C(=O)NC(CCSC)C(=O)OCc2cc([N+](=O)[O-])cc3c2OCOC3)cc(OC)c1OC (stereo not given)	i	5	-9	5	-1	x	2	8
CCc1cc(=O)oc2cc(OCC(=O)N3CCC(C(=O)O)CC3)ccc12	+	-20	-8	-1	-2	-8	-9	x
COc1cc(OC)cc(C(=O)N2CCC(C(=O)c3ccc(F)cc3)CC2)c1	i	-7	6	3	-3	-4	2	-17
COc1cc(C2Nc3cccc4cccc(c34)N2)cc(OC)c1O	x	10	17	19	-2	x	86	x	eIF4H FP inh retest=5;PABP FP inh retest=9
COC(=O)CNC(=O)C(Cc1c[nH]c2ccccc12)NC(=O)OC(C)(C)C (stereo not given)	i	-10	-2	-3	3	-4	-10	x
O=C(NC(=S)Nc1ccc(S(=O)(=O)N2CCCC2)cc1)C1CCC1	i	-10	-3	6	3	x	2	x
Cc1nn(-c2ccccc2)c(Cl)c1C1C(C#N)=C(N)Oc2n[nH]c(C)c21 (stereo not given)	i	10	5	8	7	-14	-7	x
O=C(CN1CCN(c2ccc(F)cc2)CC1)NCc1cccs1	i	-4	4	-1	1	-12	9	-1
Cc1csc2c(N3CCN(C(=O)Nc4ccccc4)CC3)ncnc12	i	7	10	3	-19	-17	-6	15
CCC(C(=O)NC(CC(=O)O)c1ccc(Cl)cc1)c1ccccc1 (stereo not given)	i	-2	10	-1	2	-5	-1	1
Cc1onc(-c2ccccc2)c1C(=O)NC1CCC(C)CC1 (stereo not given)	x	27	x	-6	-5	-7	x	x
O=C(COC(=O)c1cc(=O)c2ccccc2o1)NCc1ccccc1	x	x	x	0	2	-9	x	15
O=C(O)c1cc([N+](=O)[O-])ccc1NCCc1ccccc1	i	-5	-8	-1	3	x	2	8
CC(OC(=O)/C=C/c1cccc(F)c1)C(=O)NC1CCCCC1C (stereo not given)	i	x	11	2	1	-16	1	22
COc1ccc(OC)c(S(=O)(=O)NCc2ccccn2)c1	i	0	-13	-2	0	-4	-1	-8
N/C(=N/OCc1cccc([N+](=O)[O-])c1)c1nonc1N	x	-19	7	1	-1	2	-6	-5
CC1(C)C(=O)Nc2ccccc2N1C(=O)COC(=O)Cc1c(F)cccc1Cl	i	-10	x	-5	-1	-3	x	4
CNC(=S)N1CCc2cc(OC)c(OC)cc2C1	i	-1	-8	3	1	x	-9	1
CCn1c(=O)c2cc(C(=O)N(C)c3ccc(OC)cc3OC)sc2c2ccccc21	i	13	-3	-4	-5	1	5	-15
Cc1c(C(=O)OCCN2CCCCC2)oc2ccccc12	i	-4	2	5	3	-22	-7	3
Cc1noc(C)c1C(=O)Nc1sc2c(c1C(N)=O)CCC2	i	-1	-4	1	-2	-14	4	-46
Cc1cnc(NC(=O)Cc2c[nH]c3ccccc23)s1	i	-14	-2	1	2	-13	10	x
CC(=O)NC(NC(C)=O)c1ccc(N(C)C)cc1	i	5	0	0	1	-5	-5	1
CC(=O)c1c(C)[nH]c(C(=O)OCC(=O)NC(C)c2ccccc2)c1C (stereo not given)	x	x	x	-1	5	-29	x	2
COc1ccc(S(=O)(=O)NC(N)=NCCc2ccccc2)cc1	i	7	1	3	0	x	-7	7
CCOc1ccccc1NC(=O)C1CCN(S(=O)(=O)c2cccc3cccnc23)CC1	i	-9	-1	-4	-2	1	-3	1
COc1cc(S(=O)(=O)N2CCN(C)CC2)c(OC)cc1Br	i	-2	2	1	2	-11	5	x
COc1ccc(CN(CC2CCCO2)C(=O)CN2C(=O)C(C)Oc3ccc(C)cc32)cc1OC (stereo not given)	i	-9	6	2	1	-6	-5	-84
O=C(NCc1ccc2c3c(cccc13)C(=O)N2)c1cccs1	i	x	5	-2	-3	-6	5	-5
CCC(C)NC(=O)c1ccc(C)c(NC(=O)C2=C(C)OCCS2)c1 (stereo not given)	i	-3	5	4	3	-4	5	-1
COc1cc(CNCc2ccccn2)ccc1OCC(=O)NC(C)(C)C	i	-6	-4	0	2	x	-5	-10

Molecules from the list above with two or more sulfur atoms:
SMILES	Rce1 inhib	CSC inhib	PABP FP inh	MT1-MMP act inh	MT1-MMP act inh RFP	Yeast UUG start	eIF4H FP inh	Env fusion inh	others
O=C(CSc1nnc(-c2ccc(O)cc2)n1Cc1ccco1)c1cccs1	i	6	9	-4	-2	-12	3	6
O=C(Cc1cccs1)NCc1cccc(CNC(=O)Cc2cccs2)c1	i	-15	u	-2	0	-13	3	-8
C=C(C)CNC(=S)/N=c1\scc(C)n1CC	i	0	-4	3	0	-33	1	-109
O=C(NC(=S)Nc1ccc(S(=O)(=O)N2CCCC2)cc1)C1CCC1	i	-10	-3	6	3	x	2	x

(continued)
SMILES	Rce1 inhib	CSC inhib	PABP FP inh	MT1-MMP act inh	MT1-MMP act inh RFP	Yeast UUG start	eIF4H FP inh	Env fusion inh	others
O=C(CSc1ccccc1C(=O)O)c1ccc(Cl)cc1	i	5	7	1	2	-20	2	-8
Cc1nc2ccccc2c2c1CC(C)S2 (stereo not given)	i	-19	-8	-1	1	-3	-11	-7
Cc1cc(C(F)(F)F)nc(SCC(=O)NC2=NC(=O)C(C)S2)n1 (stereo not given)	i	5	7	-1	-1	-13	-2	x
CCc1cccc(CC)c1NC(=O)CN1C2CCCC1CC(NC(=O)Nc1cccc(OC)c1)C2 (stereo not given)	i	11	0	2	-11	x	-9	6
Cc1ccc(C(=O)Oc2ccc(C(=O)COC(=O)c3cnccn3)cc2)cc1	i	-12	2	-6	0	-4	-8	-25
COc1ccc2c(c1OC)C(=O)N1C2SC(C)(C)[C@H]1C(=O)NCCCOC(C)C (stereo not given in full)	i	-7	10	-1	2	0	3	0
O=C(NCc1ccco1)c1cccc(C(F)(F)F)c1	i	-19	4	3	7	-18	6	7
O=C(c1ccc2c(c1)OCCO2)N1CCCCC1	i	x	2	3	5	4	1	x
O=C(/C=C/c1cccc([N+](=O)[O-])c1)NC1CC2CCC1C2 (stereo not given)	i	x	8	1	0	x	-2	6
CC(C)(C)c1ccccc1OCCOCCSc1ncccn1	i	-10	13	8	9	x	1	-177
Nc1nonc1-c1noc(-c2ccc(Br)o2)n1	i	-8	9	2	2	-19	5	x
CCOC(=O)c1ccc(NC(=S)N2CCCC2c2ccc(OC)c(OC)c2)cc1 (stereo not given)	i	0	-6	1	-3	-9	-8	1
CC[N+]1(CC)CC2=Cc3c(ccc4ccccc34)CC2C1 (stereo not given)	i	-1	-12	15	9	-2	-6	x
Cc1occc1C(=O)Nc1c(Cl)cccc1Cl	i	5	-3	1	4	-3	10	-15
CCc1noc(C)c1C(=O)NC1CCCc2c1cnn2-c1cc(C)cc(C)c1 (stereo not given)	i	-1	-4	2	-7	-26	-9	-8
NC(=O)c1nn(-c2ccccc2)nc1NC(=O)CSc1nnnn1-c1ccc(Cl)cc1	i	-3	4	6	-2	15	-10	10
CCC(NC(=O)c1cc(COc2cc(C)c(Cl)c(C)c2)on1)c1ccncc1 (stereo not given)	i	10	-1	-17	-19	-13	-2	4
O=C(Nc1ccc(S(=O)(=O)N2CCCC2)cc1)C1CC(=O)N(c2ccc(F)cc2)C1 (stereo not given)	i	x	10	1	-1	-23	-1	2
O=C(Nc1nnc(-c2ccc(Cl)cc2)o1)NC1CCCCC1	i	-4	-2	5	6	-20	-8	x
CC(c1ccco1)N(C(=O)c1ccccc1NS(=O)(=O)c1ccc(Cl)c([N+](=O)[O-])c1)c1ccccn1 (stereo not given)	i	x	5	2	6	-26	3	x
O=C(COC(=O)/C=C/c1cccs1)NC1CCCCC1	i	-2	3	3	2	-13	-7	x

Screening results from PubChem.
